# miR-21 FLuc: qHTS Assay for Modulators of miRNAs and/orActivators of miR-21; Potency, µM (titrated, usually from 38.3 µM), without a hit: at the top dose reporter change, positive = more light; HeLa miR-21 FLuc reporter, luciferase, 48 h; AID 2288, 2010; 340,000 tested, under 10 active; active = well fitted rising curve with a large enough effect; inconclusive = small, poorly fitted or top-dose-only effect; inactive = no such curve, though single readings can be large or run the other way;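 note: % of control where 0% means no effect; miR-21 action dims this reporter so a rising signal means less miR-21 action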
#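 HeLa cells stably expressing CMV-driven firefly luciferase with a downstream miR-21 binding sequence, endogenously expressing miR-21, were treated with titrations (up to about 40uM final) for 48 hours at 37 degree Celsius. Luciferase luminescence was read after lysis.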
# * marks the source's active call; other numbers are inactive results; ? = inconclusive. Not all compounds are listed; the hit share may differ from the screen's.
SMILES,miR-21 FLuc
Cc1cc(Br)ccc1NC(=O)Cn1cnc2sc(C)c(S(=O)(=O)N3CCN(C)CC3)c2c1=O,6%
COc1ccc(CNC(=O)c2cc3cccc4c3n2CC(C)S4)cc1 (stereo not drawn),0%
CCOC(=O)Cc1ccc(NC(=O)N2CCC(CN3CCC(C)CC3)CC2)cc1,-1%
O=C(O)c1ccc(-n2c(/C=C\c3ccc(O)cc3)nc3ccccc3c2=O)cc1,1%
O=C(NCCc1ccccc1)c1ccc2c(c1)N(Cc1c(F)cccc1Cl)C(=O)CS2,28%
COc1ccc(S(=O)(=O)N(CC(=O)Nc2ccc(Br)cc2)Cc2ccccc2)cc1,22%
CCOC(=O)c1c(C)[nH]c(C)c1S(=O)(=O)N1CCCC(C(=O)N2CCN(c3ccc(Cl)cc3)CC2)C1 (stereo not drawn),25%
COc1ccccc1C(=O)Nc1nnc(SCc2cc(=O)n3ccc(C)cc3n2)s1,-19%
O=c1c2sc3ccccc3c2n(Cc2cccc(C(F)(F)F)c2)c(=O)n1Cc1ccc(F)cc1,-5%
CC(=O)Nc1c(C)nn(-c2ccccc2)c1N1CCC(C(=O)Nc2cccc(C(F)(F)F)c2)CC1,-1%
Cc1nn(C(=O)c2ccc(Br)cc2)c(C)c1S(=O)(=O)N1CCOCC1,1%
CCc1cccc(C)c1NC(=O)c1cc2ccccc2o1,3%
CCCCN(C)C(=O)c1ccc2c(c1)N(Cc1ccc(F)cc1)C(=O)c1ccccc1S2(=O)=O,2%
COc1cccc(CN2CCc3nc(SCC(=O)Nc4ccccc4)[nH]c(=O)c3C2)c1,4%
Cc1ccc2c(=O)c(C(=O)c3cccc(Cl)c3)cn(CC(=O)NCc3ccccc3)c2n1,0%
COc1cccc(NS(=O)(=O)c2ccc3c(c2)[C@H]2C=CC[C@H]2[C@@H](c2ccccc2Cl)N3)c1,-9%
CC(=O)c1ccc(N2CCN(c3nc4c(S(=O)(=O)c5ccc(C)c(C)c5)nnn4c4ccc(Cl)cc34)CC2)cc1,1%
COc1ccc(OC)c(CCNC(=O)c2cnn(-c3ccc(C)cc3C)c2C2CCN(C(=O)OC(C)(C)C)CC2)c1,25%
CCOC(=O)c1scc(-c2ccc(C)cc2)c1S(=O)(=O)Nc1cc(C)ccc1C,2%
Cc1nn(CC(=O)N2CCN(c3cccc(Cl)c3)CC2)c(=O)c2c1sc1ccccc12,5%
CCCCOc1ccc(C(=O)Nc2cccc(-c3nc4cccnc4s3)c2)cc1,-5%
CCC(=O)N1c2ccccc2CC1C(=O)NCCc1ccc(OC)c(OC)c1 (stereo not drawn),3%
O=C(Nc1ccccc1)c1cccc2c(=O)c3c([nH]c12)CCCC3,-34%
CCOC(=O)C1=C(CS(=O)(=O)c2ccc(C)cc2)NC(=O)NC1c1ccc(C(C)C)cc1 (stereo not drawn),?
O=C1CN(C(=O)c2ccc(S(=O)(=O)N3CCCCC3)cc2)C(c2ccc(F)cc2)c2cc(F)ccc2N1 (stereo not drawn),13%

# Among those listed so far, 5 contain fluorine.
SMILES,miR-21 FLuc
O=C(NCCc1ccccc1)c1ccc2c(c1)N(Cc1c(F)cccc1Cl)C(=O)CS2,28%
O=c1c2sc3ccccc3c2n(Cc2cccc(C(F)(F)F)c2)c(=O)n1Cc1ccc(F)cc1,-5%
CC(=O)Nc1c(C)nn(-c2ccccc2)c1N1CCC(C(=O)Nc2cccc(C(F)(F)F)c2)CC1,-1%
CCCCN(C)C(=O)c1ccc2c(c1)N(Cc1ccc(F)cc1)C(=O)c1ccccc1S2(=O)=O,2%
O=C1CN(C(=O)c2ccc(S(=O)(=O)N3CCCCC3)cc2)C(c2ccc(F)cc2)c2cc(F)ccc2N1 (stereo not drawn),13%

# Back to the main list; the 2 compounds before the break are reprinted first.
SMILES,miR-21 FLuc
CCOC(=O)C1=C(CS(=O)(=O)c2ccc(C)cc2)NC(=O)NC1c1ccc(C(C)C)cc1 (stereo not drawn),?
O=C1CN(C(=O)c2ccc(S(=O)(=O)N3CCCCC3)cc2)C(c2ccc(F)cc2)c2cc(F)ccc2N1 (stereo not drawn),13%
O=C1CN(C(=O)COc2ccc(Cl)cc2Cl)C(c2ccccc2)c2cc(F)ccc2N1 (stereo not drawn),?
COc1ccccc1C(=O)Oc1c(Sc2ccccc2)c(C)nn1C(C)(C)C,?
CC(CNC(=O)CN1C(=O)COc2ccc(S(=O)(=O)N3CCCCCC3)cc21)c1ccccc1 (stereo not drawn),-3%
Cc1ccc(Cl)cc1NC(=O)c1ccc(NC(=O)N2CCSc3ncccc32)cc1,-29%
CCc1cccc(NC(=O)Nc2cn(C)c(=O)c3ccccc23)c1,-2%
COc1cccc(N2CCN(C(=O)C3CCCN(S(=O)(=O)c4ccc(Br)s4)C3)CC2)c1 (stereo not drawn),?
CCOc1ccc(-c2cc(CCCC(=O)NCCc3cc(OC)c(OC)c(OC)c3)no2)cc1,?
COCCCn1c(SCc2ccccc2F)nc2c(sc3ccccc32)c1=O,1%
O=C(Nc1nnc(S(=O)(=O)N2CCCCC2)s1)c1ccc(F)cc1,0%
COC(=O)c1ccccc1NC(=O)Cn1c(=O)n(CCC(=O)NCc2ccc3c(c2)OCO3)c(=O)c2ccccc21,-2%
CN(C)c1ccc(C(=O)NCc2ccc3c(c2)CCN3C(=O)c2ccc(Cl)cc2)cc1,1%
CC(=O)N1CCC2(CC1)OC(=O)C(C)=C2C(=O)Nc1cc(C)ccc1C,2%
O=C(Cc1ccccc1)NCCc1csc2nc(-c3ccc(Cl)cc3)nn12,-7%
O=C(Cc1ccccc1)Nc1c(C(=O)N2CCN(c3ccc(F)cc3)CC2)oc2ccccc12,27%
COc1ccc(CNC(=O)c2ccc3c(c2)N=C(C)c2c(C)ccc(C)c2S3)cc1,27%
O=C(NCCc1ccc(Cl)cc1)c1ccc2c(c1)N(Cc1ccccc1)C(=O)CS2,22%
Cc1cc(Br)ccc1NC(=O)CCS(=O)(=O)c1cccc2nsnc12,3%
COc1ccc(CCNc2ncnc3c2c(-c2ccccc2)cn3-c2cccc(Cl)c2)cc1OC,23%
CCOC(=O)c1[nH]c(C)c(CCC(=O)Nc2c(C)cc(C)cc2C)c1C,-8%
COc1cccc(C(=O)NCC(c2ccc(N(C)C)cc2)N2CCCC2)c1OC (stereo not drawn),-6%
CCOC(=O)c1c(C)oc2nc(C)nc(NCc3ccc(Cl)cc3)c12,-5%
O=C(Nc1ccc2nn(-c3ccc(Cl)cc3)nc2c1)c1cc2ccccc2o1,5%
Cc1c(C(=O)Nc2ccccc2Br)oc2ccc(S(=O)(=O)N3CCCCCC3)cc12,-3%
Cc1cccc(N2CCN(S(=O)(=O)c3cc(C(=O)Nc4ccccc4Cl)ccc3F)CC2)c1C,6%
COc1ccc(C(=O)N2CC(=O)Nc3ccc(C)cc3C2c2ccc(F)cc2)c(OC)c1 (stereo not drawn),19%

# Later entries:
SMILES,miR-21 FLuc
CCOc1ccc(NC(=O)c2ccc(F)c(S(=O)(=O)N(Cc3ccc(C(=O)OC)cc3)Cc3ccc(OC)c(OC)c3)c2)cc1,6%
COc1ccc(C(CC(=O)O)NC(=O)c2cc3ccccc3oc2=O)cc1OC (stereo not drawn),-7%
O=c1c2oc3ccccc3c2n(Cc2cccc(F)c2)c(=O)n1Cc1ccc2c(c1)OCO2,-5%
CCOC(=O)c1ccc(NC(=O)CC2C(=O)N(c3cccc(OC)c3)C(=O)N2Cc2cccnc2)cc1 (stereo not drawn),11%
COc1ccc(CCNC(=O)c2ccc3c(c2)CCN3S(=O)(=O)c2ccc(C)cc2)cc1,12%
Cc1ccc(-n2c3nc(=O)[nH]c(=O)c-3cc3c(C)nn(-c4ccccc4)c32)cc1Cl,-8%
O=c1oc2ccc(Br)cc2cc1-c1csc(-c2ccc(Cl)cc2)n1,3%
COc1cccc(CNC(=O)Cn2c(SCC(=O)Nc3ccc(C)c(C)c3)nc3ccccc32)c1,-8%
CCc1ccc2oc(-c3cccc(NC(=O)c4ccc(-c5cccc([N+](=O)[O-])c5)o4)c3)nc2c1,-33%
Cc1ccc(N2C(=O)N(Cc3cccc(Cl)c3)c3ccccc3S2(=O)=O)cc1,5%
CCN(CC)c1nc2c(S(=O)(=O)c3cccc(Cl)c3)nnn2c2ccsc12,12%
COC(=O)c1ccccc1NC(=O)NCCc1c(C)nn(C)c1C,3%
COc1cccc(CCNC(=O)c2ccc(Cn3c(SCc4ccccc4)nc4cccnc43)cc2)c1,2%
Cc1cccc(CNC(=O)C2CCN(S(=O)(=O)c3cccc4nonc34)CC2)c1,0%
COCc1nc2cccnc2n1C1CCN(S(=O)(=O)N(C)C)CC1,-3%
Cc1oc(-c2ccccc2)nc1Cn1c(=O)cc(-c2ccccc2)c2c(C)nn(C)c21,-1%
COc1ccc(-n2nnnc2SCC(=O)NCCc2ccccc2)cc1,4%
COc1ccccc1CNC(=O)CCCCn1c(=O)c2ccccc2n(CC(=O)Nc2c(C)cc(C)cc2C)c1=O,0%
Cc1ccc(NC(c2cccc(Cl)c2)c2nnc(-c3ccccc3)o2)cc1F (stereo not drawn),-1%
Cc1cc(C)c(NC(=O)C2CCN(c3nc4ccccc4[nH]3)CC2)c(C)c1,2%
COc1ccc(C(=O)Nc2ccc3nc4n(c(=O)c3c2)CCCCC4)cc1OC,-30%
Cc1ccc(NC(=O)Cc2ccc(-n3c(C)nc4cccnc43)cc2)cc1C,2%
O=C(Nc1cc(F)ccc1F)N1CCC(CN2CCCC2)CC1,-4%
O=c1c2cc3c(cc2nc2sc(Nc4cccc([N+](=O)[O-])c4)nn12)OCO3,2%
O=C(Nc1ccc2c(c1)CCCN2C(=O)c1cccs1)c1ccc(F)c(F)c1,29%

# Further compounds follow.
SMILES,miR-21 FLuc
Cc1ccc(CNC(=O)C(=O)NCC(c2cccs2)S(=O)(=O)c2ccc(C)cc2)cc1 (stereo not drawn),0%
CCn1c(C(=O)NCc2ccccc2C)cc2oc3ccccc3c21,20%
CCOc1ccc(S(=O)(=O)N2CCN(c3cccc(C(F)(F)F)c3)CC2)cc1OCC,12%
CCN1CCc2c(sc(-n3cccc3)c2C(C)NC(=O)Nc2ccc(C(=O)OC)cc2)C1 (stereo not drawn),-18%
COc1ccc(NC(=O)CN(C)S(=O)(=O)c2ccc3nc(C)sc3c2)cc1Cl,4%
O=c1c2ccccc2n2c(-c3ccccc3O)nnc2n1Cc1ccc(F)cc1,-1%
COc1ccc(Cn2cc(C(=O)c3ccc(C)cc3)c(=O)c3cc(OC)c(OC)cc32)cc1,12%
Nc1ncc(S(=O)(=O)N2CCN(c3ccccc3)CC2)cn1,0%
CCCN(CCC)C(=O)CSc1nnc2cc(C)c3cc(C)cc(C)c3n12,-9%
CCOC(=O)c1c(C)[nH]c(C)c1S(=O)(=O)N(C)CC(=O)Nc1ccc(C)c(F)c1,-1%
O=C(Nc1nc2c(F)cccc2s1)c1ccc2c(c1)OCCO2,28%
CC(C)c1nnc(NC(=O)c2nc(SCc3ccc(F)cc3)ncc2Cl)s1,4%
COc1cc(/C=C2\C(=N)N3N=C(S(C)(=O)=O)SC3=NC2=O)ccc1OS(=O)(=O)c1ccccc1,-10%
COc1ccc(NC(=O)c2cc(-c3ccccc3O)no2)cc1,9%
CCOc1ccccc1CNC(=O)Cn1cc2c(n1)-c1c(oc(C(=O)N3CCCC3)c1C)CC2,?
CCc1ccccc1NC(=O)Cn1c(=O)n(CCc2ccccc2)c(=O)c2sc3ccccc3c21,-15%
Cc1ccc(-c2noc(-c3nnn(CC(=O)Nc4cc(C)cc(C)c4)c3N)n2)cc1,-4%
Cc1ccc(C)c(Cn2c3ccccc3c3cnn(CC(=O)NC(C)CCc4ccccc4)c(=O)c32)c1 (stereo not drawn),-3%
Clc1cccc(CSc2nnc(C3CCNCC3)o2)c1,-17%
Cc1cccc(CNC(=O)C2CCC(CNS(=O)(=O)c3ccc4c(c3)CCCC(=O)N4)CC2)c1 (stereo not drawn),16%
Cc1cccc(OCC(=O)OCc2cc(=O)n3nc(C4CCCCC4)sc3n2)c1,-7%
Cc1ccc(NC(=O)CN2C(=O)C(c3ccc(F)cc3)=NC23CCCCCC3)c(C)c1,-8%
Cc1cc(C)c2oc(-c3ccc(NC(=O)COc4ccccc4C)cc3)nc2c1,-1%
CCC1CN(C(=O)N2CCC(C(=O)NCCc3ccc(C)cc3)CC2)c2ccccc2O1 (stereo not drawn),-21%
O=C(Nc1ccc(Oc2ccccc2)cc1)c1ccc(F)c(S(=O)(=O)N2CCN(c3cccc(Cl)c3)CC2)c1,20%

# Part of the list above, reformatted:
miR-21 FLuc	Compound
13%	O=C1CN(C(=O)c2ccc(S(=O)(=O)N3CCCCC3)cc2)C(c2ccc(F)cc2)c2cc(F)ccc2N1 (stereo not drawn)
1%	CC(=O)c1ccc(N2CCN(c3nc4c(S(=O)(=O)c5ccc(C)c(C)c5)nnn4c4ccc(Cl)cc34)CC2)cc1
5%	Cc1nn(CC(=O)N2CCN(c3cccc(Cl)c3)CC2)c(=O)c2c1sc1ccccc12
-21%	CCC1CN(C(=O)N2CCC(C(=O)NCCc3ccc(C)cc3)CC2)c2ccccc2O1 (stereo not drawn)

# Some values from the list.
# CCc1ccc2oc(-c3cccc(NC(=O)c4ccc(-c5cccc([N+](=O)[O-])c5)o4)c3)nc2c1 | miR-21 FLuc: -33%
# COc1ccc(CNC(=O)c2cc3cccc4c3n2CC(C)S4)cc1 (stereo not drawn) | miR-21 FLuc: 0%

# Further compounds follow:
SMILES,miR-21 FLuc
O=C(NCCc1ccccc1)c1cc(-c2cccc(Cl)c2)on1,-8%
CCOc1cccc(C(=O)Nc2ccc(NC(=O)c3ccc(Br)cc3)cc2)c1,-6%
Cc1nc(N2CCCC2)ncc1C(=O)NCc1cccc(Cl)c1,0%
Cc1ccc(CNC(=O)C(C)n2ccc3cc(S(=O)(=O)N4CCCC4)ccc32)cc1 (stereo not drawn),10%
CC1=C(C(=O)Nc2cccnc2)C(c2ccccc2)n2nc(SCc3ccccc3)nc2N1 (stereo not drawn),9%
COc1ccc(CCn2c3c(c(=O)[nH]c2=O)C(NC(=O)c2ccccc2F)(C(F)(F)F)C(=O)N3)cc1OC (stereo not drawn),0%
O=C(COC(=O)C(Cc1c[nH]c2ccccc12)NC(=O)c1ccc(Br)cc1)c1ccc(Cl)cc1 (stereo not drawn),-1%
